hNpr1 antagonist – blocks ANP-stimulated signaling of human Npr1 receptor | P16066 | HEK293 hNpr1 GloSensor cGMP, ANP-stimulated luminescence | Potency, µM (titrated, usually from 46.3 µM), without a hit: at the highest dose activity change, negative = inhibition, hits mostly inhibitors | actives 1.6% (n = 76,000); active = well fitted inhibition curve with a large enough effect; inconclusive = small, poorly fitted or top-dose-only effect; inactive = no such curve, though single readings can be large or run the other way;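 also: nearly all actives have a fitted effect of over 60% in size; nearly all hits also lower the signal before the agonist is added; a reference antagonist and vehicle were the controls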
Target sequence (P16066 whole entry, looked up): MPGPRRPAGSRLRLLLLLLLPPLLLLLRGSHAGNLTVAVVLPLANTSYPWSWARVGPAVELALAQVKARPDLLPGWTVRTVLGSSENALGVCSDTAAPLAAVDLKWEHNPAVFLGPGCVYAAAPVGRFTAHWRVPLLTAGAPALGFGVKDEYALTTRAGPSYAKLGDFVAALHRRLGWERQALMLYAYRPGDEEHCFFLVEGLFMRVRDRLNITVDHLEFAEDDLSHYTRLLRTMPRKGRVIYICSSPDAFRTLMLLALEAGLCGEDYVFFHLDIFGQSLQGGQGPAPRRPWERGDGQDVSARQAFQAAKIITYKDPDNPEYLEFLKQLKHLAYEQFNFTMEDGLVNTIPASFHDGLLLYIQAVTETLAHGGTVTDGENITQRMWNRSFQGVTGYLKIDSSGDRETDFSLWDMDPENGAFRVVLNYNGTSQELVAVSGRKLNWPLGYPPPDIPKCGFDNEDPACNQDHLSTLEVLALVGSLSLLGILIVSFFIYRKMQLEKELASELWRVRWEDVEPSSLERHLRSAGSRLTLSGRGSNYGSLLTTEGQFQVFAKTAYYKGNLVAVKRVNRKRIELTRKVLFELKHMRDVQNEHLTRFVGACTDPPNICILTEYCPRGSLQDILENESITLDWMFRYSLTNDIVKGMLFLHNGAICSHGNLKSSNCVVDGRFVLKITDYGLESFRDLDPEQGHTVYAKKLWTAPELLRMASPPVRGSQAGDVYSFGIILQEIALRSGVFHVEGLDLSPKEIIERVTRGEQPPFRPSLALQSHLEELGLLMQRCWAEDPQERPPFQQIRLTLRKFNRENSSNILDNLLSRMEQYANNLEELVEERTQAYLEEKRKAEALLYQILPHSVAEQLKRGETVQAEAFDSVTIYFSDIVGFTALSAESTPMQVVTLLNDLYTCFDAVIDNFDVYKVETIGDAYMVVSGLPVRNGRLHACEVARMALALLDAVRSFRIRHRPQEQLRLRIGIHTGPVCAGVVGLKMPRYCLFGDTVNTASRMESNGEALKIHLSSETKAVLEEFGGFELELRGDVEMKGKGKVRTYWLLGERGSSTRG
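Compound pre-incubated 30 min at room temperature on GloSensor-loaded HEK293 cells stably carrying hNpr1 and the pGS-40F cGMP biosensor. Stimulation uses hNppA at 0.1 nM final; luminescence is taken at baseline and 20 min post-agonist.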
An asterisk follows results filed as active; ? = inconclusive; & = joins results of further samples; [ ] = remark or other dose. % is scaled to controls: 0 for no effect and ±100 for the full control effect; potency is read from the fitted curve at half-maximal effect. A portion of the library, so the mix of outcomes need not match the whole.

hNpr1 antagonist,mol
-12%,COc1ccccc1N1CCN([C@H]2[C@@H]3OC[C@@H](O3)[C@@H](NCc3ccc(-c4ccccc4)cc3)[C@@H]2O)CC1
1%[70.6 µM],CC(=O)N1CCC(N2C[C@H](O)C[C@H]2c2nc(-c3ccccn3)no2)CC1
-10%,C[S+](=O)([O-])c1ccc(-c2ncc3c(n2)OCCN(Cc2ccc(F)cc2F)C3=O)cc1
-1%,Cc1noc(C)c1C(=O)N1CC(c2nc(CCc3ccccc3)no2)C1
-1%,Cc1ccc(CCC(=O)N2C[C@@H](CN3CCOCC3)[C@@H](CO)C2)cc1
-1%,Cc1nc([C@H]2CCN(CC(C)C)C[C@H]2NC(=O)C2CCOCC2)n[nH]1
-9%,COC1CN(c2ccc(C)cc2)C12CCN(C(=O)c1sc(C)nc1C)CC2 (configuration not stated)
3%,CSc1ccccc1-c1nc(C2CCOC2)no1 (configuration not stated)
13%[70.6 µM],C[S+](=O)([O-])N1CCC2(C1)N=C(c1ccccn1)C(=O)N2 (configuration not stated)
-14%,O=C(NC1CCN(c2cc(-c3cccs3)[nH]n2)CC1)c1ccccc1F
5%,CCC(C)NC(=O)C1COC2(CCN(C(=O)c3ccc(F)cc3F)CC2)N1C(=O)c1ccccc1 (configuration not stated)
4%[70.6 µM],COC(=O)[C@@H](C)NC(=O)[C@H]1CN(C(C)=O)CCN1S(C)(=O)=O
0%,COCc1cc(=O)n(CC(=O)Nc2ccc(Br)cc2F)c(N2CCOCC2)n1
-1%,CN1CCC(N2CC3(CCC2=O)CCN(C(=O)c2ccccn2)CC3)C1 (configuration not stated)
-6%,O=C(Cn1nc2c(cc1=O)CCCCC2)Nc1ccc(C(F)(F)F)cc1
-2%[70.6 µM],O=C(N[C@@H](Cn1ccc(=O)[nH]c1=O)C(=O)O)C1CC1
5%,Cc1ccc(-c2ccc3nnc(CNC(=O)c4ccco4)n3n2)cc1
-1%[70.6 µM],COCCOCC1(CNCc2c(C)noc2C)C[C@@H](O)[C@@H](O)C1 (some centres not stated)
1%,Cc1noc(C)c1S(=O)(=O)N1CCCOCCNC(=O)[C@@H]2CCC[C@@H]21
7%,CC(=O)N1CC(CO)C2(CCN(C(=O)c3ccc(Br)cc3)CC2)C1 (configuration not stated)
-2%,O=C(c1ccco1)N1CC[C@@H]2[C@@H](CCC(=O)N2CCC2=CCCCC2)C1
1%[70.6 µM],CN(C)c1ccc(-c2nnc([C@H]3CCN(Cc4ccco4)C3)o2)cc1
1%,O=C(c1cccc(O)c1)N1CCC2(CC1)Nc1ccccc1NC2=O
5%,COc1ccccc1CNC(=O)C(C)C1CCOCC1 (configuration not stated)
-22%,COc1cccc(-c2cc3c(=O)n(CCNC(=O)c4ccccn4)ccn3n2)c1
-5%,O=C(NCCc1ccccc1)N(C1CCOCC1)C1CCN(Cc2cccnc2)CC1
1%,O=C1NCCOCCN(S(=O)(=O)c2cccc3nsnc23)[C@@H]2CCCC[C@H]12
-1%,COc1ccc(CCc2nc3nccc(-c4ccco4)n3n2)cc1
2%,O=C(CC1CCOCC1)NCc1ccccc1F
-11%,CSc1ccc(-c2ccc3c(c2)C(=O)N2CC[C@H](NC(=O)C4CCCC4)[C@H]2C(=O)N3)cc1

Individual results from the entries so far:
CN(C)c1ccc(-c2nnc([C@H]3CCN(Cc4ccco4)C3)o2)cc1 | hNpr1 antagonist: 1%[70.6 µM]
COCc1cc(=O)n(CC(=O)Nc2ccc(Br)cc2F)c(N2CCOCC2)n1 | hNpr1 antagonist: 0%

Continuation.
hNpr1 antagonist,mol
-22%,O=C(Nc1cccc(F)c1)Nc1ccc2n(c1=O)C[C@H]1C[C@@H]2CN(C(=O)c2ccc(F)cc2)C1
2%,CCN1C(=O)CN(C(=O)c2cccc(C)c2)CC12CCOCC2
3%,COCCCNC(=O)C(NC(=O)c1ccccc1C)C1CCN(C(=O)c2ccc(OC)cc2)CC1 (configuration not stated)
0%,CN(C)c1ccc(-c2nnnn2[C@H]2CO[C@H]3[C@@H]2OC[C@@H]3NS(=O)(=O)c2cccc3cccnc23)cc1
?,Fc1cccc(-c2cnc([C@@H]3COCCN3Cc3ccc(Cl)cc3)[nH]2)c1
-1%,COCCOCc1nc(C2CCCCN2C(=O)c2ccc(OC)c(OC)c2)no1 (configuration not stated)
-3%,Cc1cccc(NC(=O)Nc2ccc(C)n(CC(=O)Nc3ccc(C)c(C)c3)c2=O)c1
-8%,O=C(Nc1cccc(-c2nnc3n2CCCC3)c1)Nc1ccccc1F
2%,COCc1nn(CC(=O)NC(C)Cc2cc(C)[nH]n2)c(=O)n1-c1ccccc1 (configuration not stated)
-20%[70.6 µM],OC(c1cccc(C(F)(F)F)c1)c1nc(Nc2ccccc2)n[nH]1 (configuration not stated)
4%,Cc1ccc(CN2C[C@@H]3C(=O)N(CCCN4CCCC4=O)C(=O)[C@@H]3C2)c(C)c1
-6%,COc1cccc(S(=O)(=O)N2CCCCCCNC(=O)[C@@H]3CCC[C@@H]32)c1
5%,CC(C)NC(=O)Cn1ccn2nc(-c3ccc(F)cc3)c(CO)c2c1=O
-10%,COc1ccc(NC(=O)N2c3ccccc3CC2c2nc(C(C)C)no2)c(OC)c1 (configuration not stated)
5%[70.6 µM],CC(C)Cc1cc(C[C@@H]2C[C@H](NC3CCOCC3)C2(C)C)no1
-7%&15%[70.6 µM],c1ccc(CN2CCC3(CC2)CC(c2cccnc2)=NO3)cc1
8%,CNC(=O)c1cc(S(=O)(=O)N2CC[C@H](CO)[C@H](O)C2)cs1
8%[70.6 µM],CSCCNC(=O)C1CN(c2cccc(Cl)c2)C(=O)N1 (configuration not stated)
4%,Cc1nnsc1C(=O)N[C@H]1CCN(C(=O)c2ccco2)[C@H](C(=O)N[C@H](Cc2c[nH]c3ccccc23)C(N)=O)C1
14µM*,Cc1ccccc1CC(=O)N1CCN(C(=O)c2nnn3c2COC(c2ccc(Cl)cc2)C3)CC1 (configuration not stated)
0%,Cc1oc2c(c1C(=O)N1CCSCC1)CN(Cc1cccc(F)c1)CC2
1%,O=C([C@@H]1C[C@H](F)CN1C(=O)Nc1ccc(F)cc1)N1CCOCC1
0%,CCC1COCCN1Cc1cn(-c2ccccc2)nc1-c1ccc(OC)cc1F (configuration not stated)
-1%,CC(C)c1noc(-c2cccn3c(CNC(=O)c4cc5ccccc5[nH]4)nnc23)n1
6%,CCC1(O)CCCN(c2ncc(C(C)(C)C(=O)O)c(N3CCOCC3)n2)C1 (configuration not stated)
3%[70.6 µM],CNC(=O)CCn1ncc2cc(OCc3ccccc3-c3cccnc3OC)ccc21
2%,Cc1nonc1OCCNC(=O)C1CC(=O)N(Cc2ccccn2)C1 (configuration not stated)
-2%,COc1ccc(N2CCC(NC(=O)c3ccc(N(C)C)cc3)C2=O)cc1 (configuration not stated)
3%,O=c1[nH]c(C2CCN(Cc3cccs3)CC2)nc2ccc(F)cc12
5%,COCC[C@]1(O)CCN(C(=O)CCc2nc(-c3ccco3)no2)C[C@H]1C

Entries above marked active in hNpr1 antagonist.
hNpr1 antagonist,mol
14µM*,Cc1ccccc1CC(=O)N1CCN(C(=O)c2nnn3c2COC(c2ccc(Cl)cc2)C3)CC1 (configuration not stated)

The listing continues:
hNpr1 antagonist,mol
6%,COc1cccc(-c2noc(CCCc3nc(-c4cccnn4)no3)n2)c1
9%[70.6 µM],COc1cc2c(cc1OC)C(C[C@H]1CN(C(=O)C(=O)O)CC[C@H]1CC(=O)O)=NCC2
5%,CC1=C[C@@H](CNC(=O)C(C)(C)C)[C@H](C(C)C)C[C@H]1CC(=O)N1CCN(c2ccccn2)CC1
1%,COc1ccc(-c2nc3cnccn3c2NCCC(=O)N2CCCC(C)C2)cc1 (configuration not stated)
-1%,COCc1cc(=O)n(CC(=O)NCc2ccc(OC)cc2)c(N2CCOCC2)n1
-3%,COCCN(Cc1cnc(-c2cccc(C)c2)nc1)Cc1cccs1
-1%,CC1(C)Cc2cc(CNC(=O)c3cccc(C4CCNC4)c3)ccc2O1 (configuration not stated)
-23%[70.6 µM],CC(C)(C)c1ccnc(N[C@H]2CO[C@H]3[C@@H]2OC[C@@H]3NC(=O)NCc2ccccc2)n1
-1%[70.6 µM],FC(F)(F)Oc1ccc(-c2cnc([C@@H]3COCCN3C3CCOCC3)[nH]2)cc1
0%,Cc1ccc(C(=O)N2CCC(C3CCN(Cc4cccc(F)c4F)CC3)C2)cn1 (configuration not stated)
0%[70.6 µM],COc1ccc(CNC(=O)C[C@@H]2C[C@H]3O[C@H](CNC(=O)NC(C)C)[C@@H](O)[C@H]3O2)cc1
-1%,COc1cccc(C(=O)NCC2(COc3ccc(S(C)(=O)=O)cc3)C[C@@H](O)[C@@H](O)C2)c1 (some centres not stated)
-3%,CNC(=O)[C@@H]1CN(C(=O)Cc2ccc(Br)cc2)C[C@H]1CO
1%,COc1ccc2[nH]c3c(c2c1)CCN(C)C31CCN(C(=O)c2cccn2C)CC1
4%,COc1cccc(CN2CCCCCCNC(=O)[C@@H]3C[C@@H](C(=O)NCCc4cnc[nH]4)C[C@@H]32)c1
20µM*,Fc1cccc(CN2CCC(Oc3ccc(-c4noc(C5CC5)n4)cc3)C2)c1 (configuration not stated)
5%,CC(C)(C)CC(=O)Nc1nc2c(s1)C[C@@H]1[C@](C)(CO)[C@H](O)CC[C@@]1(C)[C@@H]2CC(=O)N1CCC(C(N)=O)CC1
-18%,COc1ccc(C2(C(=O)N3CCC(Oc4ccc(-c5noc(C)n5)cc4)C3)CC2)cc1 (configuration not stated)
-3%[70.6 µM],COc1ncccc1-c1nc(-c2c(C)noc2C)cc2cc(CN(C)C)oc12
-24%,COc1ccc(C2(c3nc(C4CC(=O)N(C5CCCCC5)C4)no3)CC2)cc1 (configuration not stated)
20%,Cc1cn2nc(C(=O)Nc3ccccc3C)cc2c(N(C)Cc2ccccc2)n1
-9%,C=CCOc1cccc(-c2nnc(CCC(=O)NCc3ccc4c(c3)OCO4)c(=O)[nH]2)c1
-12%,O=C(NCc1ccc2c(c1)OCO2)C1CN(c2ccc(Cl)cc2)C(=O)N1 (configuration not stated)
3%,NCC(=O)N[C@H]1CN(c2nccc(C(F)(F)F)n2)C[C@@H]1C1CC1
-21%,CCCn1nc(C)cc1CN(C)C(=O)c1ccc2c(c1)C(O)CCCCCN2C (configuration not stated)
-1%,O=C(c1cc(F)cc(F)c1)N1CCC(N2CC3CC(C2)[C@H]2CCCC(=O)N2C3)CC1 (some centres not stated)
-12%[70.6 µM],Cc1nn(CCC#N)c(C)c1[C@@H]1C=C[C@@H](NC(=O)c2cccs2)C1
10%,CC(C)C(=O)N1CCCC(c2noc(COc3ccccc3F)n2)C1 (configuration not stated)
8%,CCOc1ccc(CC(=O)N2CC(CO)C3(CCNCC3)C2)cc1OCC (configuration not stated)
-15%,COc1ccc(-c2ccc3c(c2)C(=O)N2CCN(C(=O)c4cccnc4)C[C@@H]2C(=O)N3)c(OC)c1
3%,Cc1ccc(CN2CCN(C(=O)C3Cn4cccc4C(=O)N3C)CC2)cc1 (configuration not stated)
2%,Cc1nn(C)cc1CN1CCc2n[nH]c(=O)n2CC1
-2%,NC1CCCCN(Cc2cc3ccccc3o2)C1 (configuration not stated)
-7%,CCC(=O)N1CCN(C2CCN(Cc3cccnc3)C2=O)CC1 (configuration not stated)
-1%[70.6 µM],O=C1COCC2(CN1)CN(C(=O)c1ccc(Cl)cc1)C2
6%[70.6 µM],COCc1ccc2c(c1)c(OC(C)(C)C(N)=O)nn2Cc1cccc(OC)c1
-1%,Cc1nc(-c2cccc(Cl)c2)n(Cc2nc(-c3ccccc3)oc2C)c(=O)c1CCO
5%,O=C([C@H]1C[C@H](Oc2ccccc2)CN1C(=O)CCCc1ccccc1)N1CCOCC1
8%[70.6 µM],COc1ccccc1CN[C@H]1[C@H](O)[C@@H](N2CCC(C(N)=O)CC2)[C@@H]2OC[C@H]1O2
6%,CN1CC(=O)N(c2ccc(Cl)cc2)Cc2c(NCCO)ncnc21
-2%,COc1ccc(-c2ccnc3nc(C(C)C)nn23)c(F)c1
-3%,C=CCN(Cc1ccccc1OCC)C(=O)CCn1cccc1
4%[70.6 µM],CC(C)OC(=O)N1CCC(COc2cnc3c(ccn3CC(N)=O)c2)CC1
-2%,COc1ccc(CN2C(=O)COC[C@H]2C(=O)Nc2ccc(OC)c(OC)c2)cc1OC
-1%,COc1cccc(CN2CC3(C2)C(=O)N(Cc2ccccc2Cl)C(=O)[C@@H]2C[C@@H](O)CN23)c1
-2%,CC(C)N1C[C@H](C(=O)NCCC2=CCCCC2)[C@H](C(=O)O)C1

Arranged by value in hNpr1 antagonist (ascending): 3 of the compounds above.
canonical_smiles	hNpr1 antagonist
COc1ccc(-c2ccnc3nc(C(C)C)nn23)c(F)c1	-2%
O=C(CC1CCOCC1)NCc1ccccc1F	2%
COCC[C@]1(O)CCN(C(=O)CCc2nc(-c3ccco3)no2)C[C@H]1C	5%

Fetched by structure from the entries so far (two):
hNpr1 antagonist,mol
-2%,NC1CCCCN(Cc2cc3ccccc3o2)C1 (configuration not stated)
-2%,COc1ccc(CN2C(=O)COC[C@H]2C(=O)Nc2ccc(OC)c(OC)c2)cc1OC

Compound activity deposited in PubChem BioAssay by National Center for Advancing Translational Sciences (NCATS).
